GCN5L2 inh – qHTS Assay for Inhibitors of GCN5L2. GCN5L2 HAT assay, ThioGlo1 CoA-SH fluorescence. Potency, µM (doses to about 58.9 µM), without a hit: top-dose activity change, negative = inhibition, most hits filed as inhibitors. AID 504327, 2011. hit rate 0.21% among 390,000. Histone acetyltransferase KAT2A (Homo sapiens), Q92830
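GCN5L2 (20nM final) in 50mM HEPES, 0.1mM EDTA pH 7.5, 0.01% Tween-20 was preincubated 15 min at room temperature with compound, then given ThioGlo1 (50uM), H3(1-25) peptide (75uM) and acetyl-CoA (70uM); CoA-thiol fluorescence (Ex340/Em540) was read at 0 and 20 min.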
FEN1 inhibitor – qHTS Assay for the Inhibitors of Human Flap endonuclease 1 (FEN1); Recombinant FEN1 flap cleavage, fluorescence, 15 min; AID 588795, 2011; hit rate 0.35% among 390,000; Potency, µM (titrated, usually from 114 µM), inactives show top-dose activity change, negative = inhibition, usual class: inhibitors; note: nearly all actives have a fitted effect of over 65% in size
Target sequence (P39748 whole entry, looked up): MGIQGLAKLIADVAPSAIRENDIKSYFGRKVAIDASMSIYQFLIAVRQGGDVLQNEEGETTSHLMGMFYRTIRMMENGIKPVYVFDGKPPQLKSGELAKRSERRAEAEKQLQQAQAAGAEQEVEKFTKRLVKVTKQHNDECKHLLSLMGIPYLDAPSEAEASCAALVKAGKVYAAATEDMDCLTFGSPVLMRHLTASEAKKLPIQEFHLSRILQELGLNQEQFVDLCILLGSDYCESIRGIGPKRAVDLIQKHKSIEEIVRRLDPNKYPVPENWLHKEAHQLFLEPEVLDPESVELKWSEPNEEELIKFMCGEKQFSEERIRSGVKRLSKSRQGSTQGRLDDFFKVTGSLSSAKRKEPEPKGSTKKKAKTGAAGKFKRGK
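Concentration–response screening of FEN1 (10 nM): 15 min compound preincubation at room temperature, reaction started with 50 nM substrate and read at 0 and 15 min. Corrected, normalized data were fitted by a four-parameter Hill equation.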
Starred values were filed as active, the others as inactive; u = inconclusive; x = not tested or not shown; & = joins results of further samples; [ ] = remark or other dose. Calls come from the whole dose curve; as a rule, active = well fitted curve in the direction sought with a large enough effect; inconclusive = small, poorly fitted or top-dose-only effect, or another doubt; inactive = no such curve, though single readings can be large; an effect the other way counts as inactive or inconclusive. % is set by controls: 0 for no effect and ±100 for the full control effect; potency is the fitted concentration of half-maximal effect. The list is partial; most or all hits stand in other tables.

SMILES	GCN5L2 inh	FEN1 inhibitor
Cc1ccc(NC(=O)N2CCCCC2)cc1[N+](=O)[O-]	-1%	-6%
NS(=O)(=O)c1ccc(CCNC(=O)CSc2nc3ccsc3c(=O)n2CC(=O)O)cc1	-6%	-4%
CC(C)CN(C(=O)COC(=O)CN1C(=O)c2ccccc2C1=O)c1c(N)n(Cc2ccccc2)c(=O)[nH]c1=O	-6%	8%
Cc1nc(N=C(N)N)nc2ccccc12	-6%	u
COc1cc(NS(=O)(=O)c2ccc3c(c2)n(C)c(=O)n3C)cc(OC)c1	0%	17%
Cc1cccn2c(=O)c3cc(C(=O)NC4CCS(=O)(=O)C4)sc3nc12 (configuration not stated)	-14%	-12%
CN(C(=O)CSc1nc2ccc(NC(=O)COc3ccccc3Cl)cc2s1)c1ccccc1	-7%	15%
O=C(NN1C(=O)C2C(c3ccccc3)C=CC(c3ccccc3)C2C1=O)c1cccc(Br)c1 (configuration not stated)	-5%	-20%
O=C(CN1CCSC1=O)N1CCN(S(=O)(=O)c2ccccc2)CC1	1%	16%
COCC1CCCN(Cc2cn[nH]c2-c2cc3ccccc3o2)C1 (configuration not stated)	-4%	0%
CCS(=O)(=O)N1CCc2cc(C(=O)Nc3cc(C)cc(C)c3)ccc21	-8%	19%
O=C(CCCn1c(=S)[nH]c2ccccc2c1=O)NC1CCCC1	-27%	-1%
Cc1ccc(C)c(N2CCN(C(=O)CCc3nnc4n(CC(C)C)c(=O)c5ccccc5n34)CC2)c1	1%	-3%
CC(=O)c1cccc(NC(=O)N2CCCC2C(=O)NCc2ccccc2)c1 (configuration not stated)	0%	6%
CCOc1ccc2nc(Nc3nc(CSc4nnnn4-c4ccccc4)cc(=O)[nH]3)nc(C)c2c1	-4%	8%
COc1ccc(N(C(=O)Nc2ccc(Cl)cc2)C2=NCCC2)cc1	-4%	-1%
CCOC(=O)Cn1c(=O)oc2cc(S(=O)(=O)N3CCN(c4ccc(F)cc4)CC3)ccc21	-4%	29%
Cc1cc(C)c(S(=O)(=O)n2c([N+](=O)[O-])cnc2C)c(C)c1	0%	-9%
O=C(CCc1ccc(S(=O)(=O)N2CCOCC2)cc1)Nc1ccc2c(c1)OCCO2	-5%	-12%
O=C(CNC(=O)c1sc2ccccc2c1Cl)NCc1cccnc1	-7%	2%
CCC(Sc1nnc(C)s1)C(=O)Nc1nccs1 (configuration not stated)	-6%	0%
COc1ccccc1CO/N=C/NC(=O)c1c(OC)ccnc1Oc1ccc(F)cc1	5%	-18%
CC1CCCCC1NC(=O)COc1ccccc1C#N (configuration not stated)	-6%	-3%
CCN(CC(=O)NCc1cccs1)C(=O)c1cccc(S(=O)(=O)Nc2cccc(C)c2)c1	-9%	-16%
COc1ccccc1NC(=O)Cn1nnc2sc3c(c2c1=O)CC(C)(C)OC3	3%	-18%
O=S(=O)(NCc1ccc(F)cc1)c1ccc(Br)cc1Br	-5%	-2%&-2%
CN(CCCNC(=O)COc1cc(=O)n(C)c2ccccc12)Cc1ccccc1	-1%	-14%
Cc1cccc(-c2nnc(SCc3ccccc3)o2)c1	-13%	-7%
O=C(Nc1ccccc1)NC1(C(=O)NCc2ccco2)CCCCC1	-3%	-11%
Clc1ccc(C2=CSC3=Nc4cccc5cccc(c45)N23)cc1	-4%	-15%
COc1cc2[nH]c(=O)n(CCCCCC(=O)NCCCN3CCOCC3)c(=O)c2cc1OC	-13%	-2%
O=C(CSc1n[nH]c(-c2ccccc2Cl)n1)NC1CCCCC1	-3%	1%
COc1ccc(/C=N/NC(=O)CNC(=O)c2cccs2)cc1	37%	2%
CSc1ncccc1C(=O)Nc1nnc(C2CC2)s1	-10%	-2%
Cc1c(Cl)cccc1NC(=O)c1noc2c1CCCC2	-5%	12%
O=C(CSc1n[nH]c(-c2ccccc2)n1)NCCc1ccccc1	-1%	-2%
CCOc1ccc2nc(COC(=O)c3ccncc3)c(C(=O)c3ccccc3)[n+]([O-])c2c1	-4%	-11%
NNC(=O)c1ccc2nc(-c3ccc(Br)cc3)cn2c1	-7%	-10%
COc1ccc(-c2nsc(NC(=O)COc3ccc(C)c(C)c3)n2)cc1	-7%	14%
CC(=O)c1cccc(NCc2ccccc2-c2nnc(-c3ccccc3)o2)c1	-3%	16%
CCOc1ccc(NC(=O)CC2C(=O)N(c3ccccc3)C(=O)N2CCc2cccs2)cc1 (configuration not stated)	-6%&-2%	-22%&-11%
COc1cc(/C=C/C(=O)NCCn2c(C)cc3ccccc32)cc(OC)c1OC	-2%	-19%
O=C(Nc1cccc(C(F)(F)F)c1)c1cc2ccc3cccnc3c2[nH]1	-29%	-11%
COCCNc1oc(-c2ccccc2Cl)nc1C#N	-22%	-5%
Cc1ccc(NCC(=O)c2ccc(C)cc2)cc1	-20%	1%
COc1ccc(NC(=O)c2ccco2)cc1NC(=O)c1ccc(Br)o1	-3%	-4%
O=C(NCC1CCCO1)c1ccc(COc2ccc(F)cc2)o1 (configuration not stated)	-4%	-2%
CC(=O)Nc1ccc(-c2csc(Nc3cc(C)ccn3)n2)cc1	-13%	-21%
O=C(CSc1nnc(COc2ccccc2)n1-c1ccccc1)c1ccccc1	-9%	-19%
COC(=O)Nc1ccc(S(=O)(=O)N2CCCCC2C(=O)NCc2ccco2)cc1 (configuration not stated)	-8%	-1%
Following part:
SMILES	GCN5L2 inh	FEN1 inhibitor
O=C(NNC(=O)C1CC1c1ccccc1)c1cccc([N+](=O)[O-])c1 (configuration not stated)	3%	-2%
CCN(CC)C(=O)c1[nH]cnc1C(=O)NCc1ccccc1	-3%	-12%
CCOC(=O)Cc1nnc(NC(=O)CSc2ncc(-c3ccccc3)nn2)s1	0%	-9%
CCN1CCN(C(c2cccs2)C(C)NS(=O)(=O)c2ccccc2)CC1 (configuration not stated)	-2%	18%
CN1CCN(S(=O)(=O)c2ccc(N)cc2)CC1	-1%	-2%
CCCCN(CCCC)Cc1ccc(C(=O)NNC(=O)Nc2ccc(Cl)cc2)o1	-9%	12%
COc1ccc(OC)c(-c2csc(NC(=O)Cc3ccc(OC)c(OC)c3)n2)c1	-10%	u
CC(C)N(CC(N)=O)C(=O)c1sc2cc(F)ccc2c1Cl	-4%	-5%
COc1cc(C(=O)Nc2cc(C)ccc2OCc2cc(=O)n3c(C)csc3n2)cc(OC)c1OC	-6%	-5%
N#CCOC(=O)c1c2c(nc3ccccc13)CCC2	-4%	-7%
Cn1c(SCC(=O)NC(C)(C)C)nnc1-c1cccc(NC(=O)c2ccccc2F)c1	-12%	-3%
COc1ccc(/C=C/C(=O)NC(=S)NCc2ccccc2)cc1OC	4%	-16%
Cc1cccc(-c2nc(SCCCOc3ccccc3Cl)n3[nH]c(=O)cc3n2)c1	-2%	-29%
Cc1c(Cl)cccc1NC(=O)Cn1nc(C)c2sc3ccccc3c2c1=O	-3%	-12%
O=C(Nc1ccccc1NC(=O)c1csnn1)c1csnn1	14%	-7%
CCOc1ncccc1C(=O)OCC(=O)Nc1ccc2c(c1)CCC2	-3%	3%
CC(C)(C)C(=O)Nc1nc(C2CCCN2S(=O)(=O)c2ccc(Cl)cc2)cs1 (configuration not stated)	-3%	-4%
COc1ccc(NC(=O)Cn2c3ccc(OC)cc3c3nc4n(c(=O)c32)CCS4)cc1	-1%	18%
O=C(Nc1ccccc1C(F)(F)F)c1ccc(F)c(S(=O)(=O)N2CCOCC2)c1	-6%	-1%
COCCN(C(=O)CNC(=O)c1cccs1)C(C(=O)NC1CCCC1)c1cccs1 (configuration not stated)	2%	-7%
CN(C)Cc1c(C(C)(C)O)[nH]c2ccc(C(F)(F)F)cc12	0%	4%
COc1ccc(C2c3c(oc4ccc(F)cc4c3=O)C(=O)N2Cc2ccc3c(c2)OCO3)cc1 (configuration not stated)	-1%	9%
CCn1c(=O)cc(SCC(=O)NCc2ccccn2)c2ccccc21	-2%	9%
COc1ccccc1N1CCN(c2nc(-c3ccccc3)cc(C(F)(F)F)n2)CC1	-11%	-13%
Cc1cccc(OCC(=O)N(Cc2cccs2)C2CCS(=O)(=O)C2)c1C (configuration not stated)	0%	-8%
COc1cccc2cc(-c3n[nH]c(=S)n3C)oc12	-11%	-5%
COc1ccccc1-c1nnc(SCC(=O)OC(C)C)o1	x	-1%
Cc1cc(NC(=O)c2ccco2)c(=O)n(Cc2c(F)cccc2Cl)c1	-2%	7%
O=C(CSc1ncn[nH]1)Nc1cccc(S(=O)(=O)N2CCCCCC2)c1	-11%	-6%
CCOC(=O)N1CCC(NC(=O)CSc2cc(=O)n(CC)c3ccccc23)CC1	1%	55%[activator]
CCOC(=O)Cn1c(=O)oc2cc(S(=O)(=O)Nc3cc(Cl)ccc3OC)ccc21	-8%	14%
Cc1cc(Br)ccc1N=C1NC(=O)CS1	-10%	11%
Cc1ccc(NC(=O)c2sc3nc4c(cc3c2N)CN(Cc2ccccc2)CC4)cc1	-6%	13%
COc1ccc(CCNC(=O)c2c([S-])n(-c3ccc(C)cc3)c3cccc[n+]23)cc1	-14%	-5%
CCn1c(=O)c(C(=O)NCCCO)c(O)c2ccccc21	-3%	6%
COc1cc(CC(=O)N2CCN(C(=O)C3CCCO3)CC2)cc(OC)c1OC (configuration not stated)	0%	-5%
O=C(CCCCn1c(=O)c2ccccc2n(CC(=O)Nc2ccccc2)c1=O)NCc1ccccc1Cl	-4%	7%
CCCC(=O)Nc1sc2c(c1C(=O)Nc1ccccn1)CCCC2	0%	-18%
O=C1c2ccccc2C(=O)N1OCc1cccc(Cl)c1	-6%	5%
Cc1ccc(C(C(=O)NCc2ccco2)N(CC2CCCO2)C(=O)Cn2nnc3ccccc32)cc1 (configuration not stated)	1%	-2%
Nc1ncnc2c1ncn2[C@@H]1O[C@H](CNCc2ccccc2OCc2ccc(Cl)cc2Cl)[C@@H](O)[C@H]1O	1%	-14%
CCOC(=O)C1CCN(C(=O)c2cc3ccccc3oc2=O)CC1	0%	22%
O=C(N/N=C/c1ccccn1)c1cccs1	u	-10%
Cc1ccc(/C=C2/SC(=S)N(CCC(=O)NCCCN3CCOCC3)C2=O)cc1	-4%	-4%
CC(=O)O[C@H]1CSC[C@H]1NC(=O)c1ccccc1	-3%	5%
CCn1nc(C)cc1C(=O)N(C)C1CCCN(Cc2ccccc2F)C1 (configuration not stated)	-1%	0%
CCc1nc(SCC(=O)Nc2ccc(F)cc2)c2c(=O)n(C)c(=O)n(C)c2n1	-4%	-4%
O=C(c1ccc(C#CC2(O)CCCCC2)cc1)N1CCOCC1	4%	0%
Cc1ccc([N+](=O)[O-])cc1S(=O)(=O)N1CCn2cccc2C1c1ccccc1F (configuration not stated)	1%	-19%
CCOC(=O)c1c(NC(=O)C2CC2)sc2c1CC(C)(C)OC2	-8%	-1%
Remaining list, next part:
SMILES	GCN5L2 inh	FEN1 inhibitor
CCOC(=O)c1c(S(=O)(=O)NCC(=O)N2CCN(c3cccc(Cl)c3)CC2)c(C)n(C)c1C	-11%	8%
CN(C)S(=O)(=O)c1ccc(Nc2ccc(-c3ccc4c(c3)OCCO4)nn2)cc1	-4%	-22%
CC(C)Cn1c(SCC(=O)N2CCc3ccccc3C2)nc2cc(Cl)ccc2c1=O	-2%	-9%
Cc1cc(NC(=O)CC2(CC(=O)O)CCCC2)n(C)n1	-4%	19%
Cc1nc(SC(C(=O)c2ccccc2)c2ccccc2)n[nH]1 (configuration not stated)	-6%	6%
CCOc1ccc(N2CC(C(=O)OCC(=O)NCc3ccccc3)CC2=O)cc1 (configuration not stated)	-4%	15%
O=C(O)c1ccc(Sc2ccccn2)c([N+](=O)[O-])c1	5%	10%
CCC(C)c1ccccc1NS(=O)(=O)c1cnn(CC)c1 (configuration not stated)	1%	-19%
Cc1sc(NC(=O)CSc2nnnn2C2CCCCC2)c(C#N)c1C	-1%	-8%
CC(=O)NC12CC3CC(C1)CC(C(=O)OCC(=O)Nc1ncc(Cl)cc1Cl)(C3)C2	-8%	-8%
COc1ccc(C)cc1NC(=O)C1CCCCN1S(=O)(=O)c1ccccc1 (configuration not stated)	-10%	-4%

Screens from PubChem.
